VDR inh = vitamin D3 receptor (human) inhibition; AID 504847; Potency, µM, for the others: max response, negative = inhibition, hits mostly inhibitors; VDR-SRC2-3 peptide fluorescence polarization, 2 h; actives 0.93% (n = 400,000); P11473; active means well fitted inhibition curve with a large enough effect; inconclusive means small, poorly fitted or top-dose-only effect, or another doubt; inactive means no such curve, though single readings can be large or run the other way; further: series mostly up to about 120 µM
Target sequence (P11473 whole entry, looked up): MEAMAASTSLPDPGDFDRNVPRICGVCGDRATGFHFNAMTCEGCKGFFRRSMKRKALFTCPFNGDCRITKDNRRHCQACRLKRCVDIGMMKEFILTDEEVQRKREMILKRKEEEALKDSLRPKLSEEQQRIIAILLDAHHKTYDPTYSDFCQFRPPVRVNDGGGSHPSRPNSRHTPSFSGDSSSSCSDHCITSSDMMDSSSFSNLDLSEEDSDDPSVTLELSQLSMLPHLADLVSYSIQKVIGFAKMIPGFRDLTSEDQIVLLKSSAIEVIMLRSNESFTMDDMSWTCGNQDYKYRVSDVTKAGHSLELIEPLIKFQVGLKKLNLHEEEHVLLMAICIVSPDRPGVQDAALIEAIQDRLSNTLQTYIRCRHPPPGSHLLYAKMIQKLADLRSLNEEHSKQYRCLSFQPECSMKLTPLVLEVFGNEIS
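Compounds are added to VDR with labelled SRC2-3 coactivator peptide and held 2 h at room temperature. Inhibition of the VDR–peptide interaction is then read as a change in fluorescence polarization.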
* hit, by the source's call; ? = inconclusive; [ ] = another dose, or the depositor's remark. On the % scale 0 is the no-effect control and ±100 the full control effect; potency means the concentration at half of the fitted maximal effect. These rows are one share of the data; rates above refer to the full screens.

Molecule	VDR inh
O=C(Nc1ccccc1OCc1ccccc1)c1ccccc1Br	1%
CCC1=CC(c2ccccc2)n2ncnc2N1 (configuration not stated)	-10%
c1ccc(CCNCCOc2ccccc2)cc1	-1%
CCc1ccc(NS(=O)(=O)c2c(-c3ccccc3)csc2C(=O)OC)cc1	4%
CC(C)NC(=O)C1CCC(Cn2c(=O)c3sccc3n(CC(=O)NCc3ccccc3)c2=O)CC1 (configuration not stated)	2%
CCCCCCSc1nsc(NC(C)=O)n1	-3%
CCCCCN=CC1=C(O)CC(c2ccccc2)CC1=O (configuration not stated)	-4%
COc1ccc(C(CNC(=O)COc2ccccc2C)N2CCOCC2)cc1 (configuration not stated)	-7%
O=C(Nc1cccc(F)c1)N1CCCC2(CCN(C(=O)c3ccncc3)CC2)C1	0%
CCOCCn1c(CN2CCN(C)CC2)nc2c1c(=O)n(C)c(=O)n2C	-9%

Remaining list, next part:
Molecule	VDR inh
COC(=O)C1=C(C)N(C)C(C)=C(C(=O)OC)C1c1ccccc1C	18%
CC(=O)c1ccc(NC(=O)c2cnn3c(C(F)F)cc(C4CC4)nc23)cc1	-8%
COc1ccc2c(c1OC)C(=O)N(c1ccc(OCc3ccccc3)cc1)C2=O	13%
COc1ccc(/C=C/C(=O)Nc2ccccc2C(F)(F)F)cc1OC	6%
O=C(COc1ccc(Cl)cc1Cl)NC(=S)Nc1ccc(CN2CCOCC2)cc1	-3%
CCOC(=O)c1ccc(NC(=O)Cn2c(=O)cc(C)c3c(C)nn(-c4ccc(CC)cc4)c32)cc1	6%
NC(=O)C1CCN(C(=O)C2CCN(S(=O)(=O)c3ccccc3)CC2)CC1	-3%
O=C(c1ccccc1)n1c(=O)cc[nH]c1=O	-8%
CCCNC(=O)CSc1n[nH]c(=O)n1CCc1ccccc1	25%
COc1cc2c(cc1O)C(Cc1ccc(O)cc1)NCC2 (configuration not stated)	-8%

The final 2 records of the section before are carried over, then new ones follow.
Molecule	VDR inh
CCCNC(=O)CSc1n[nH]c(=O)n1CCc1ccccc1	25%
COc1cc2c(cc1O)C(Cc1ccc(O)cc1)NCC2 (configuration not stated)	-8%
O=C(NCc1ccco1)O[C@@H]1C(=O)c2cc(Br)ccc2O[C@H]1c1ccc2c(c1)OCO2	?
COc1ccc(Cl)cc1NS(=O)(=O)c1c(C)nc2scc(C)n2c1=O	-25%
O=C(CC(=O)c1ccccc1)Nc1cccnc1Cl	-23%
CN1CCN(C(=O)c2cc([N+](=O)[O-])cc([N+](=O)[O-])c2)CC1	2%
CSc1nc2ccc(Nc3nc(N4CCOCC4)nc(N4CCOCC4)n3)cc2s1	-4%
COc1cc(NC(=O)c2ccccc2[N+](=O)[O-])ccc1NC(=O)c1cc2ccccc2o1	-4%
CC1=CC(c2ccc(Cl)cc2)n2ncnc2N1 (configuration not stated)	1%
O=C(Cn1c(=O)c2cccn2c2ccc(F)cc21)Nc1cccc(F)c1	3%
CCCCN(CC)CCNC(=O)c1cc2c(=O)[nH]c3ccc(C)cc3c2s1	-6%
CCCc1ccc(OCc2ccc(C(=O)O)o2)c(OC)c1	-2%

New compounds follow.
Molecule	VDR inh
CCS(=O)(=O)N1CCN(c2ccc([N+](=O)[O-])c(NC(C)c3ccccc3)c2)CC1 (configuration not stated)	-11%
COC(=O)c1c(NC(=O)COc2ncnc3ccccc23)sc(C)c1C	12%
Cc1ccc(CNC(=O)CSc2ncc(S(=O)(=O)c3ccc(Br)cc3)c(=O)[nH]2)cc1	-2%
COC(=O)C1=C(C)N(C)C(=O)NC1c1c(O)ccc2ccccc12 (configuration not stated)	1%
O=C(CSc1nccn(-c2ccc(F)c(F)c2)c1=O)NC1CCCC1	-15%
COc1ccc(C(=O)Nc2ccc(-c3cn4ccsc4n3)cc2)cc1S(=O)(=O)N1CCOCC1	9%
CCn1c(=O)cc(OCC(=O)Nc2ccc(OC)c(OC)c2)c2ccccc21	-7%
COCC(=O)Nc1ccc(F)cc1	8%
CC1CCCCN1C(=S)NC(=O)c1ccccc1 (configuration not stated)	-28%
Clc1cccc(Cl)c1CN1CCN(c2ncccn2)CC1	11%

New compounds follow
Molecule	VDR inh
O=C(Nc1ccc(S(=O)(=O)N2CCOCC2)cc1)c1cc(S(=O)(=O)N2CCOCC2)ccc1Cl	4%
COCCn1c(=O)c(CCc2ccccc2)nc2cnc(N3CCN(C)CC3)nc21	3%
Cc1ccc(NC(=O)c2cnc(N3CCCCC3)c3ccccc23)cc1Cl	8%
N=c1n(CC(=O)c2ccc(Br)s2)c2ccccc2n1Cc1ccccc1	6%
CC1Sc2ccc(S(=O)(=O)NCc3ccccc3)cc2NC1=O (configuration not stated)	-14%
O=c1[nH]c(/C=C2\C=Nc3ccccc32)c(O)n1Cc1ccccc1F	0%
Cc1ccc(C(=O)NCC(c2ccc(Cl)cc2)N2CCCCC2)cc1 (configuration not stated)	9%
O=C(COc1ccccc1O)NCCN1CCOCC1	16%
NC[C@H](Cc1ccccc1)NCCCCC1CCCCC1	-14%
O=C1CCC(C(=O)N2CCCCCCC2)CN1Cc1cccc(C(F)(F)F)c1 (configuration not stated)	-21%

Other structures follow:
Molecule	VDR inh
Cc1cccc(Nc2nc(Cl)ncc2F)c1C	32%[activator]
Cc1ccc2nc(Cl)c3cc(C(=O)N4CCCCC4)sc3c2c1	-16%
C/C(CCc1ccc2c(c1)OCO2)=N\N=C(/N)SC1CC(=O)N(c2ccccc2F)C1=O (configuration not stated)	1%
Cc1ccn2c(Nc3ccc4c(c3)OCO4)c(-c3ccc(C)o3)nc2c1	?
CCn1c(=O)c2cc(C(=O)Nc3cc(OC)c(OC)c(OC)c3)sc2c2ccccc21	-18%
Cc1cccc(N2CCN(CC(=O)Nc3nccs3)CC2)c1C	-11%
O=C1CCN(Cc2ccccc2)CCN1[C@H](CSc1ccccc1)c1ccccc1	-3%
COC(=O)c1cccnc1NC(=S)NNC(=O)c1ccccc1	8%
C[C@@H](C(=O)NCCc1ccccc1F)N1C(=O)N2CCc3c([nH]c4ccccc34)[C@@]2(C)C1=O	-14%
CC(=O)OC1CC[C@@]2(C)C(CC[C@@]3(C)C2CC=C2C4CC(C)(C)CC[C@]4(C(=O)O)CC[C@@]23C)C1(C)C (some centres not stated)	3%

Further entries follow.
Molecule	VDR inh
Cc1cc(NC(=O)CCC(=O)N(CC(=O)NCC2CCCO2)c2ccc(C)c(C)c2)no1 (configuration not stated)	-2%
Cc1ccc(S(=O)(=O)N(CC#N)CC#N)cc1	3%
CCOC(=O)C1=C(CNCc2ccc(F)cc2)NC(=O)NC1c1cccc([N+](=O)[O-])c1 (configuration not stated)	-4%
O=C(Nc1cccc(S(=O)(=O)N2CCOCC2)c1)c1ccc(Cl)c([N+](=O)[O-])c1	7%
COc1cc(/C=N/NC(N)=S)ccc1OCC(=O)Nc1ccc(C)c(C)c1	-14%
S=c1[nH]nc(-c2ccccc2)n1Cc1ccccc1	7%
COC(=O)CN(c1ccc2c(c1)OCCO2)S(=O)(=O)c1ccccc1	5%
O=C(NCCCn1ccnc1)c1ccc(S(=O)(=O)N2CCCCCC2)cc1	-8%
Cc1ccc(CNC(=O)c2ccc(N3CCC4(CC3)CC(c3ccccc3)=NO4)c([N+](=O)[O-])c2)cc1	-4%
OCC(CO)NC1C[C@](O)(CO)[C@@H](O)[C@H](O)[C@H]1O (some centres not stated)	2%

(further entries)
Molecule	VDR inh
O=C(CC1(O)C(=O)N(C/C=C/c2ccccc2)c2ccccc21)c1ccccn1 (configuration not stated)	-6%
CC(C)CNC(=O)COC(=O)/C=C/c1ccccc1[N+](=O)[O-]	-2%
Cc1nonc1CC(=O)N1CCc2c([nH]c3ccccc23)C1c1ccccc1F (configuration not stated)	12%
COc1cccc(C(=O)OCCNC(=O)c2cccnc2)c1	13%
CCc1ccc(CNc2ccc(O)cc2)cc1	22µM*
C=CCn1c(SCC(=O)Nc2ccccc2C)nc(O)cc1=O	1%
CCOc1ccc(-n2c(=O)c3sccc3n(CC(=O)Nc3cccc(OC)c3)c2=O)cc1	-3%
C=CCNc1nc(Cl)nc(NCc2ccco2)n1	2%
N#Cc1c(N2CCOCC2)nsc1-c1ccc(C(F)(F)F)cc1	22%
CCn1c2ccccc2c2cc(N=C3SC(CC(=O)Nc4ccccc4OC)C(=O)N3CCOC)ccc21 (configuration not stated)	-2%

Next part.
Molecule	VDR inh
CCOc1ccc(CNC(=O)C2CCN(S(=O)(=O)N3CCCC3)CC2)cc1OC	13%
CCn1c(SCC(=O)N/N=C/c2ccncc2)nc2ccccc21	6%
CC(NC(=S)Nc1c(Cl)cccc1OC(F)F)C(C)(C)C (configuration not stated)	-5%
CCc1ccc(NC(=O)c2sc(-n3nc(C)c(CCC(C)C)c3C)nc2C)cc1	-1%
CCOC(=O)c1c(C)[nH]c(C)c1C(=O)COC(=O)c1cc2ccccc2cc1O	-6%
Cc1ccc(SCCC(=O)Nc2cccc(N(C)S(C)(=O)=O)c2)cc1	-9%
Cc1ccc(C)c(NC(=S)Nc2ncccc2C)c1	-11%
COc1ccc(-c2cc(C(F)(F)F)nc(NCCc3ccccc3)n2)cc1OC	2%
Cc1ccc(C(C(=O)NCc2ccco2)N(Cc2ccco2)C(=O)CNC(=O)c2ccco2)cc1 (configuration not stated)	?
CCCSc1nc(N)cc(=O)[nH]1	-3%

(listing goes on)
Molecule	VDR inh
COc1ccc(NS(=O)(=O)c2ccc3c(c2)CCN3C(=O)C2CC2)cc1OC	-6%
COc1ccc(Cn2c(C(=O)O)c(CNCc3ccc(C)o3)c3ccc(OC)cc32)cc1	2%
Cc1ccc(C)n1-c1ccc(N2CCOCC2)nc1	17%
CC(NC(=O)CN(c1ccc(Br)cc1)S(C)(=O)=O)c1ccccc1 (configuration not stated)	-13%
O=C(OCC(=O)N1CCCCC1)c1cccs1	-12%
COc1ccccc1C(CC(N)=O)c1ccco1 (configuration not stated)	-14%
CCN(CC)CCCNC(=O)CN1C(=O)CCn2nc(-c3cn(C)c4ccccc34)cc21	6%
Cc1ccccc1NC(=O)CSc1nc(-c2cccs2)nc2cc(=O)[nH]n12	-11%
Nc1nonc1C(=O)NCCNCc1cc(Br)ccc1OCc1ccc(F)cc1	8%
O=c1c2[nH]c3cccc(Cl)c3c2ncn1Cc1ccco1	8%

More compounds follow:
Molecule	VDR inh
COc1ccc(/C=C/C(=O)NCc2ccc3c(c2)OCO3)cc1OC	9%
COCCn1c(CNC(=O)c2cccc(C)c2)nc2cccnc21	12%
COC(=O)c1cc(Oc2ccc(S(=O)(=O)N3CCOCC3)cc2[N+](=O)[O-])cc(C(=O)OC)c1	1%
CCOC(=O)CNC(=O)CSc1nnc(-c2ccncc2)n1-c1ccc(Cl)cc1	-10%
CCOc1ccc(OCCC(=O)N(CCCOC)c2c(N)n(Cc3ccccc3)c(=O)[nH]c2=O)cc1	-1%
CCN(CC)S(=O)(=O)c1ccc(Oc2ccccc2)c(N)c1	10%
Cc1ccccc1CC(=O)Nc1sc(C(C)C)cc1C(=O)N1CCOCC1	-4%
O=C(NCCc1c[nH]c2ccccc12)c1ccc(Br)o1	-10%
N=c1c(C(=O)NC2CCCCC2)cc2c(=O)n3ccccc3nc2n1Cc1ccc(F)cc1	-13%
Cc1cccc(-c2nnc(SCC(=O)N3CCCc4ccccc43)o2)c1	-9%

Carrying on.
Molecule	VDR inh
CCOC(=O)CC(NC(=O)Cn1nnc(-c2ccc(Cl)cc2)n1)c1ccc(OC)cc1 (configuration not stated)	56%[activator]
O=C(NCC1CCCO1)c1ccc(C(=O)NCC2CCCO2)cc1 (configuration not stated)	2%
O=C1C2C(C(=O)N1/N=C/c1ccco1)C1C=CC2C12CC2 (configuration not stated)	-3%
CCOc1ccc(-n2ccnc2SCC(=O)Nc2nnc(CC)s2)cc1	9%
Cc1ccc(OCC(=O)NCCCNC(=O)c2ccco2)cc1	-11%
Cc1nc2sccn2c(=O)c1S(=O)(=O)NCCc1ccccc1	-17%
O=C1OCCC1Sc1nnc(-c2ccc(F)cc2)n1Cc1ccccc1 (configuration not stated)	4%
O=C(NCC1CCCO1)/C(=C/c1ccccc1F)NC(=O)c1ccccc1 (configuration not stated)	-12%
Cc1cccc(C(=O)NC2CCN(CC(=O)NCc3ccccc3F)CC2)c1	-6%
COc1cc2c(cc1OC)C1=CC(=O)C(=O)N1C(C)(C)C2	11%

New compounds follow
Molecule	VDR inh
COc1ccc(NC2=C(C(C)=O)C(c3ccccc3)C(C(C)=O)C(C)(O)C2)cc1 (configuration not stated)	0%
Cn1c(=N)n(CC(=O)c2ccc(Br)s2)c2ccccc21	4%
Cc1ccc(S(=O)(=O)N2CCOCC2)cc1NC(=O)CN1C(=O)NC2(CCCC2)C1=O	-7%
O=C(Nc1cc(-c2ccccc2F)nn1-c1ccccc1)c1ccccc1Br	0%
O=C1OC(c2ccccc2)C2(CCCC2)C(=O)C12CCCC2 (configuration not stated)	2%
Cc1ccn2cc(-c3cccc(NC(=O)c4ccccc4)c3)nc2c1	-6%
O=C(CN(C(=O)CNC(=O)c1ccco1)c1ccc2c(c1)OCCO2)NC1CCCC1	-13%

Quoted at random: 7 compounds from above
Molecule	VDR inh
Cc1ccc(S(=O)(=O)N2CCOCC2)cc1NC(=O)CN1C(=O)NC2(CCCC2)C1=O	-7%
O=C(Nc1cc(-c2ccccc2F)nn1-c1ccccc1)c1ccccc1Br	0%
O=C1OC(c2ccccc2)C2(CCCC2)C(=O)C12CCCC2 (configuration not stated)	2%
COc1ccc(NC2=C(C(C)=O)C(c3ccccc3)C(C(C)=O)C(C)(O)C2)cc1 (configuration not stated)	0%
Cn1c(=N)n(CC(=O)c2ccc(Br)s2)c2ccccc21	4%
Cc1ccn2cc(-c3cccc(NC(=O)c4ccccc4)c3)nc2c1	-6%
O=C(CN(C(=O)CNC(=O)c1ccco1)c1ccc2c(c1)OCCO2)NC1CCCC1	-13%
